Screens as filed in PubChem.
YopH PTP inh: inhibitors of Yersinia enterocolitica YopH tyrosine phosphatase; fluorescence Ex485/Em525; inhibition, %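 (about 10 µM by stock and volumes)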; 140,000 tested, 0.16% active; AID 898;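 active = inhibition of 50% or more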;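 note: controls were vehicle for no effect and minimum signal wells for full effect; inactives centre near -20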
RecA intein inh: Mtb RecA intein splicing inhibition; 290,000 tested, 0.75% active; P9WHJ3; inhibition, %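 (about 9 µM by stock and volumes)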; cell-free RecA intein splicing, fluorescence; in the data active = inhibition above about 30%; inconclusive = no clear call, values can overlap the other calls;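 note: 0% = vehicle wells and 100% = reference inhibitor control wells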
Target sequence (P9WHJ3 whole entry, looked up): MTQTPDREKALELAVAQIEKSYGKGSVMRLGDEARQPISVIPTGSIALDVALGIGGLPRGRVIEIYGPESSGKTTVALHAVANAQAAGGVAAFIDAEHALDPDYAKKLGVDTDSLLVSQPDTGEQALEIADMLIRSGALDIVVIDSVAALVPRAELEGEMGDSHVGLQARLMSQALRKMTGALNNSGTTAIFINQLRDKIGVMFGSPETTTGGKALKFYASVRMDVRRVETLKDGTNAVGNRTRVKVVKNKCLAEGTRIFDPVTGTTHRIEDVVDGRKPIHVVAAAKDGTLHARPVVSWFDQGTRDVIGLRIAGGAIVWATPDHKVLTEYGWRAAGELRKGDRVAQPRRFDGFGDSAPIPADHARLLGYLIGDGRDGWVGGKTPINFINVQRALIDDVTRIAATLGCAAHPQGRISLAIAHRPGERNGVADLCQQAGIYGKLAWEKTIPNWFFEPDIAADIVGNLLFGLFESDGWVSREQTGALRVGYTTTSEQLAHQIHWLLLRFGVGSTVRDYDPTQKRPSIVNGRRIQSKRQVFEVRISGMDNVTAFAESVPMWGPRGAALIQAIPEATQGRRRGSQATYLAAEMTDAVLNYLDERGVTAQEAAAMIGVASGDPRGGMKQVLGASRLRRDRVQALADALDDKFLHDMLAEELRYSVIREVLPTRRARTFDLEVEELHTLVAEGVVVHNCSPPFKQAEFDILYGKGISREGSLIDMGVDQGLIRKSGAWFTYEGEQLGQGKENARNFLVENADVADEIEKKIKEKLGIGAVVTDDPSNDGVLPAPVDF
Mtb betalactam: beta-lactam sensitization of Mtb H37Rv; M. tuberculosis H37Rv growth with meropenem, percent inhibition; hits of this screen are not shown here; AID 434955; 330,000 tested, 0.27% active; inhibition, % at 25 µM;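 active = about 74% or more and at least 40 points above the plate without the antibiotic, then above 30% in a dose series; inconclusive = first-round hits that could not be retested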;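 note: growth measured after seven days incubation then overnight dye step; 0% = bacteria only wells and 100% = bacteria with antibiotic; twin plates without the antibiotic show which effects depend on it; some results filed as inactive read as strong as hits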
Mtb H37Rv: M. tuberculosis H37Rv growth inhibitors, H37Rv strain (AID 1626) | M. tuberculosis H37Rv growth inhibition; higher % means a stronger effect | one-dose inhibition, % at 10 µM; IC50 in µM for titrated hits | 220,000 tested, 0.95% active;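 active = confirmed in a dose series; inconclusive = inhibition above 80% but not taken into the dose series; inactive = below 80% or under 30% at every dose of the series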;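 note: bacteria incubated seven days before Alamar blue readout; 0% = bacteria only wells and 100% = bacteria with antibiotic wells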
Arbovirus anti: antivirals against arbovirus infection. arbovirus infection cell-based antiviral screen. inhibition, % at 10 µM. 200,000 tested, 0.37% active. AID 1251;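 active = inhibition from about 30%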;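 note: bluetongue infection of BSR cells; cell survival read as ATP light after 72 h; 0% = infected wells without compound and 100% = uninfected wells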
Active calls of the source: *; ? = inconclusive; nt = not tested or not shown. Only part of the results is shown (hit frequency here may not be typical).

Codes: A = YopH PTP inh; B = RecA intein inh; C = Mtb betalactam; D = Mtb H37Rv; E = Arbovirus anti
#1 CC(C)C(c1nnnn1CC1CCCO1)N1CCN(Cc2ccc3c(c2)OCO3)CC1 (configuration not stated)
  A: 0; B: 2.7; C: 17; D: 0%; E: 10
#2 Cc1csc(N(C(=O)Cc2ccccc2F)c2ccccc2)n1
  A: -28; B: 0.8; C: 1; D: -8%; E: -7
#3 COc1ccc(OCc2n[nH]c(=S)o2)cc1
  A: 8; B: 0.2; C: -16; D: -7%; E: 5
#4 COC(=O)CSc1nnc(C2COc3ccccc3O2)n1-c1ccccc1 (configuration not stated)
  A: -7; B: 1.0; C: 1; D: -1%; E: 5
#5 Cc1ccc(C(=O)C2=C(O)C(=O)N(Cc3cccnc3)C2c2ccc(N(C)C)cc2)o1 (configuration not stated)
  A: nt; B: -5.1; C: -9; D: nt; E: nt
#6 CC1(C)Cc2c(cnn2-c2ccc(F)cc2)C(NC(=O)C(C)(C)O)C1 (configuration not stated)
  A: nt; B: -2.5; C: -2; D: nt; E: nt
#7 COc1ccc(C(C(=O)NCC2CCCO2)N(C(=O)Cn2nnc3ccccc32)c2ccc(NC(C)=O)cc2)c(OC)c1 (configuration not stated)
  A: nt; B: -3.8; C: -3; D: nt; E: nt
#8 Cc1cccc(N(CC(O)CON=C2c3ccccc3-c3ccccc32)S(C)(=O)=O)c1 (configuration not stated)
  A: -16; B: 9.2; C: 4; D: 9%; E: -22
#9 CCOC(=O)c1c(C)nc2c(C#N)cnn2c1C
  A: 2; B: -2.1; C: -2; D: -7%; E: 2
#10 COc1cc(C2C(C(C)=O)=C(O)C(=O)N2c2ccc(C)cc2)ccc1O (configuration not stated)
  A: -12; B: -3.4; C: 3; D: 0%; E: -2
#11 COc1cc2c(cc1OC)C(c1ccccc1Br)NC(=O)C2 (configuration not stated)
  A: nt; B: -1.4; C: -2; D: nt; E: nt
#12 O=C(C[n+]1cn(C(F)F)c2ccccc21)c1ccc(OC(F)F)cc1
  A: nt; B: 4.4; C: -5; D: 4%; E: -7
#13 Cc1cc(C)nc(N2CCC(CNC(=O)CCc3ccccc3)CC2)n1
  A: -30; B: 1.4; C: -3; D: -8%; E: 2
#14 CCN1C(=O)CC(NCc2ccc3c(c2)OCO3)C1=O (configuration not stated)
  A: 11; B: 1.9; C: -3; D: 0%; E: -7
#15 CCCCC(=O)OCC(=O)Nc1ccc(C)c(F)c1
  A: nt; B: 5.3; C: -7; D: 9%; E: 5
#16 CCCc1ncc(CN2CCCC(C(=O)Nc3ccc(-c4cccc(OC)c4)cc3)C2)cn1 (configuration not stated)
  A: nt; B: 0.9; C: 97; D: nt; E: nt
#17 CCC(C(=O)NC1CCCCC1)N(C(=O)c1snc(C(N)=O)c1N)c1ccc(OC)cc1OC (configuration not stated)
  A: nt; B: -2.4; C: 7; D: nt; E: nt
#18 O=C(CSc1cn(CCNC(=O)c2cccs2)c2ccccc12)NC1CCCC1
  A: -31; B: 2.5; C: -7; D: 8%; E: 8
#19 CC(=O)c1cccc(NC(=O)C(Sc2ncnc3ccccc23)c2ccccc2)c1 (configuration not stated)
  A: -24; B: 18; C: 3; D: 0%; E: 11
#20 C[N+]1(CCOS(=O)C23CC4CC(CC(C4)C2)C3)CCOCC1 (configuration not stated)
  A: -8; B: -2.5; C: 2; D: 0%; E: 0
#21 CN(C)/C=C/C(=O)c1ccc(S(=O)(=O)c2ccccc2)cc1
  A: nt; B: -0.1; C: -4; D: -3%; E: 4
#22 CCOC(=O)CNC(=O)Cc1ccc(OC)cc1
  A: nt; B: -2.0; C: -12; D: 5%; E: nt
#23 CCC(C)[C@H](NC(=O)NCc1ccc(OC)c(OC)c1)C(=O)O (some centres not stated)
  A: nt; B: 1.7; C: -1; D: 0%; E: nt
#24 CC(=O)c1ccc(Nc2cnn(C34CC5CC(CC(CC(=O)O)(C5)C3)C4)c(=O)c2Cl)cc1
  A: nt; B: -1.3; C: -2; D: -1%; E: 1
#25 CCOc1ccccc1C(=O)Nc1ccccc1O
  A: -20; B: 2.1; C: 4; D: 4%; E: -2

An excerpt of these results, as labelled records.
[13] Cc1cc(C)nc(N2CCC(CNC(=O)CCc3ccccc3)CC2)n1
  YopH PTP inh: -30
  RecA intein inh: 1.4
  Mtb betalactam: -3
  Mtb H37Rv: -8%
  Arbovirus anti: 2
[14] CCN1C(=O)CC(NCc2ccc3c(c2)OCO3)C1=O (configuration not stated)
  YopH PTP inh: 11
  RecA intein inh: 1.9
  Mtb betalactam: -3
  Mtb H37Rv: 0%
  Arbovirus anti: -7

The list goes on:
Codes: A = YopH PTP inh; B = RecA intein inh; C = Mtb betalactam; D = Mtb H37Rv; E = Arbovirus anti
#26 Cc1ccc(C)c(S(=O)(=O)N2CCC(c3nc4c(nnn4Cc4ccc(F)cc4)c(=O)[nH]3)CC2)c1
  A: -38; B: nt; C: 53; D: 13%; E: -36
#27 COc1ccc(-c2ccc(=O)[nH]n2)cc1
  A: -19; B: -1.8; C: 3; D: -4%; E: 3
#28 Cc1ccc(NC(=O)/C(Cl)=C/c2ccccc2)cc1C
  A: -4; B: 6.3; C: 99; D: ?; E: 7
#29 Cc1nc2ccccc2c(=O)n1NC(=O)c1ccc([N+](=O)[O-])cc1
  A: nt; B: 0.4; C: -3; D: 1%; E: 8
#30 CCNC(=O)N(CCOC)CC1CCCN(C2Cc3ccccc3C2)C1 (configuration not stated)
  A: nt; B: -0.7; C: -4; D: nt; E: nt
#31 CC1CC(C)CN(S(=O)(=O)c2ccc(Oc3ccc([N+](=O)[O-])cc3)cc2)C1 (configuration not stated)
  A: -26; B: 4.7; C: -3; D: 6%; E: 9
#32 CC(=O)c1ccc(N2CCN(C(=S)Nc3cc(C)ccc3C)CC2)cc1
  A: -26; B: 1.6; C: 1; D: 10%; E: -12
#33 COc1cc(CN2CCCC(C(=O)c3ccc(C(C)(C)C)cc3)C2)cc(OC)c1O (configuration not stated)
  A: nt; B: -2.2; C: -6; D: nt; E: nt
#34 CCOC(=O)C1=C(C)N=c2s/c(=C\c3ccc(OCC(=O)O)c(OC)c3)c(=O)n2C1c1ccc(OC)cc1 (configuration not stated)
  A: nt; B: -4.0; C: 6; D: nt; E: nt
#35 COCCN(C(=O)CCc1ccc(OC)cc1)c1nnc(-c2ccncc2)s1
  A: nt; B: -0.1; C: -1; D: 6%; E: -11
#36 COc1ccc(C(=O)N2CCCC(c3nc(-c4ccc(C)o4)no3)C2)cc1OC (configuration not stated)
  A: nt; B: 0.7; C: 3; D: nt; E: nt
#37 O=C(Nc1ccccc1)c1cc(S(=O)(=O)N2CCOCC2)cs1
  A: 3; B: -0.1; C: -7; D: -6%; E: 7
#38 CCc1ccc(NC(=S)Nc2ccc3cn[nH]c3c2)cc1
  A: -25; B: 12; C: nt; D: 58%; E: 5
#39 COc1ccccc1C(=O)NC(CCSC)C(=O)N1CCC(Cc2ccccc2)CC1 (configuration not stated)
  A: nt; B: 7.9; C: 2; D: nt; E: nt
#40 COc1ccc(C(c2nnnn2C2CCCC2)N2CCC(C)CC2)cc1 (configuration not stated)
  A: 0; B: 1.8; C: 1; D: 8%; E: -6
#41 O=C(O)CCC(=O)N1CCN(S(=O)(=O)c2ccc3ccccc3c2)CC1
  A: nt; B: -1.1; C: 0; D: nt; E: nt
#42 O=C(CNC(=S)N(CCCN1CCOCC1)Cc1cccs1)NC1CCCCCCC1
  A: -21; B: -0.4; C: -9; D: 3%; E: -19
#43 CC1CCC2(CC1)NC(=O)N(CC(=O)Nc1ccc3c(c1)OCCO3)C2=O (configuration not stated)
  A: nt; B: 0.5; C: -5; D: -1%; E: 12
#44 Cc1nc(N)ncc1C(=O)Nc1ccccc1
  A: nt; B: 0.4; C: -2; D: 6%; E: -3
#45 CCCCn1c(N)c(N(CC(C)C)C(=O)c2cc(S(=O)(=O)N3CCCCC3)ccc2C)c(=O)[nH]c1=O
  A: nt; B: 1.1; C: -3; D: nt; E: nt
#46 CC(=O)c1cnc2c(-c3cccc(Br)c3)cnn2c1C
  A: -28; B: 5.8; C: 9; D: 9%; E: -3
#47 Cn1c(OCc2cccnc2)nc2c1c(=O)n(Cc1ccc(F)cc1)c(=O)n2C
  A: nt; B: 0.0; C: -4; D: 3%; E: nt
#48 Cc1ccc(C(=O)N2CCN(c3cc4c(cc3[N+](=O)[O-])n(C)c(=O)n4C)CC2)cc1
  A: -36; B: 3.2; C: 4; D: -9%; E: 3
#49 CCOc1ccc(-c2c(=O)n(OCc3ccc([N+](=O)[O-])cc3)c3ccccc3[n+]2[O-])cc1
  A: -21; B: 5.5; C: 4; D: 1%; E: -12
#50 Cc1cc(C)cc(OCC(=O)N2CCCCCC2)c1
  A: 17; B: 1.6; C: -4; D: 1%; E: 5

Entries of single compounds from above. Order of screens: YopH PTP inh | RecA intein inh | Mtb betalactam | Mtb H37Rv | Arbovirus anti
CCC(C)[C@H](NC(=O)NCc1ccc(OC)c(OC)c1)C(=O)O (some centres not stated) is entered as nt | 1.7 | -1 | 0% | nt
O=C(Nc1ccccc1)c1cc(S(=O)(=O)N2CCOCC2)cs1 is entered as 3 | -0.1 | -7 | -6% | 7
O=C(O)CCC(=O)N1CCN(S(=O)(=O)c2ccc3ccccc3c2)CC1 is entered as nt | -1.1 | 0 | nt | nt

Shown as labelled records: two of the compounds above.
46: CC(=O)c1cnc2c(-c3cccc(Br)c3)cnn2c1C
  YopH PTP inh: -28 | RecA intein inh: 5.8 | Mtb betalactam: 9 | Mtb H37Rv: 9% | Arbovirus anti: -3
47: Cn1c(OCc2cccnc2)nc2c1c(=O)n(Cc1ccc(F)cc1)c(=O)n2C
  YopH PTP inh: nt | RecA intein inh: 0.0 | Mtb betalactam: -4 | Mtb H37Rv: 3% | Arbovirus anti: nt

Continuation:
Codes: A = YopH PTP inh; B = RecA intein inh; C = Mtb betalactam; D = Mtb H37Rv; E = Arbovirus anti
#51 Cc1ccc(N2CCN(S(=O)(=O)N(C)C)CC2)cc1C
  A: nt; B: 8.4; C: -5; D: 4%; E: 11
#52 Cc1ccc(-c2nnc(Cc3ccc(Cl)cc3)o2)cc1
  A: -4; B: 2.7; C: 4; D: 23%; E: -4
#53 CCC(C)NC(=O)C1CCC(CNS(=O)(=O)c2ccccc2)CC1 (configuration not stated)
  A: nt; B: -0.2; C: -6; D: nt; E: nt
#54 N#Cc1cccc(NC(=O)Nc2cccs2)c1
  A: -38; B: -1.2; C: -2; D: -2%; E: -2
#55 O=C(CCCOc1ccccc1)Nc1cccnc1
  A: -3; B: 2.0; C: 49; D: 2%; E: 5
#56 Cc1ccc(C)c(NS(=O)(=O)c2cc(C(N)=O)ccc2C)c1
  A: -19; B: -2.6; C: 2; D: -13%; E: -2
#57 COc1cc2c(cc1OC)/C(=C/C#N)NC(C)(C)C2
  A: -40; B: 7.1; C: 12; D: -3%; E: 2
#58 COc1ccc(CNC(=O)C(=O)NCCC2CCCCN2S(=O)(=O)c2ccccc2)cc1 (configuration not stated)
  A: nt; B: 2.5; C: -15; D: nt; E: nt
#59 O=C(CCn1c(=S)oc2ccccc21)NC1CCCCC1
  A: nt; B: -3.4; C: -2; D: 4%; E: nt
#60 Cc1sc2nc(CSCC(=O)N(CCC#N)c3ccccc3)[nH]c(=O)c2c1C
  A: nt; B: -7.7; C: 5; D: -1%; E: 18
#61 CN1/C(=C/C=N/NC(=O)c2ccc([N+](=O)[O-])cc2)C(C)(C)c2ccccc21
  A: -15; B: 0.8; C: 28; D: ?; E: -24
#62 O=C(/C=C/c1ccc(O)c(O)c1)OCCc1ccccc1
  A: nt; B: 4.0; C: 2; D: -6%; E: nt
#63 S=C(NC1CCCC1)N1CCN(c2cccc(Cl)c2)CC1
  A: nt; B: 0.3; C: 7; D: 6%; E: 6
#64 COc1ccc(S(=O)(=O)N(C)c2ccc(C(=O)NCc3ccco3)cc2)cc1
  A: nt; B: 4.6; C: -15; D: nt; E: nt
#65 Fc1ccc(/C=N/N2CCCCC2)c(F)c1
  A: nt; B: -1.3; C: -4; D: nt; E: nt
#66 Cc1ccnc(OC(C(=O)O)C(OCCc2ccccc2)(c2ccccc2)c2ccccc2)n1 (configuration not stated)
  A: nt; B: -0.6; C: 5; D: nt; E: nt
#67 Cc1cc(N2CCN(C(=O)c3ccco3)CC2)n2ncc(-c3ccccc3)c2n1
  A: -17; B: 1.8; C: 58; D: 25%; E: -3
#68 Cc1cccc(NC(=O)c2ccc(N3C(=O)C4C5C=CC(C6CC56)C4C3=O)cc2)c1 (configuration not stated)
  A: nt; B: 1.1; C: ?; D: nt; E: nt
#69 CCOC(=O)CN1C(=O)N[C@@H](c2cccc(F)c2)C(C(=O)OC)=C1C
  A: nt; B: 5.6; C: -17; D: -8%; E: nt
#70 CC(C)c1ccccc1NCC(=O)N1CCN(Cc2ccccc2)CC1
  A: nt; B: 3.0; C: -7; D: nt; E: nt
#71 Cc1ccc(NC(=O)Cn2cccc2)cc1Cl
  A: 1; B: 2.8; C: 88; D: ?; E: 3
